High-throughput results (PubChem BioAssay)
Hsc70 ATP site – Hsc70 inhibitors, probe displacement, primary screen, biochemical, fluorescence polarization (AID 568) | Hsc70 fluorescence polarization, probe displacement; higher % means a stronger effect; strong numbers were not always called active | one-dose displacement, % at 20 µM; IC50 in µM for titrated hits | 83,000 tested, under 10 active;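 active = displacement above 50% without optical interference and an IC50 on retest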;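 also: ATPase domain with a fluorescein-tagged ATP probe; 0% = vehicle and 100% = excess ADP; read after one hour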
WNV NS2B-NS3 inh – inhibitors of West Nile virus NS2B-NS3 protease. WNV NS2B-NS3 protease, fluorogenic substrate Ex360/Em465; hits give low values. z-score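 (tested at a level between 10 and 100 µM)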. 65,000 compounds, 0.18% hits;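 active = z-score at -3 or under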;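 also: score is relative to mean and spread of the compound wells of a plate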
Target sequence (P06935 1371-1501 limits assumed): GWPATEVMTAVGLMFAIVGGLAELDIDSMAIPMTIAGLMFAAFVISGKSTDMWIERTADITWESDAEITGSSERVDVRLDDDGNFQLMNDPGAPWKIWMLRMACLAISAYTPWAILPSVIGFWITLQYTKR
Target sequence (P06935 1502-1679 limits assumed): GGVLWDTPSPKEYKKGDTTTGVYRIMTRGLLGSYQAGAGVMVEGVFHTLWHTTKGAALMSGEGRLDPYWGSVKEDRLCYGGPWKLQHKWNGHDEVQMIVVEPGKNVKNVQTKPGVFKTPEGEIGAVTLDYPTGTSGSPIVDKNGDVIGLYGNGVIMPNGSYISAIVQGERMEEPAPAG
MT1-MMP reporter – MT1-MMP gene expression reporter suppression – cell-based, luciferase reporter, luminescence (AID 618); MT1-MMP promoter luciferase reporter cells, luminescence; calls from a first round at 10 µM; hits with a dose series show EC50 in µM; 87,000 compounds, 0.62% hits;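 active = over half of the reporter light lost at 10 µM or EC50 under 50 µM; inactive = the rest and hits that failed the dose series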;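 also: actives suppress MT1-MMP promoter-driven transcription so potencies describe inhibitors; HT1080 fibrosarcoma cells; overnight exposure; toxic or luciferase-blocking compounds were not removed from the actives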
Numbers without * were called inactive; i = inactive; . = not tested or not shown.

SMILES | Hsc70 ATP site | WNV NS2B-NS3 inh | MT1-MMP reporter
COc1ccc(C2Nc3ccccc3C(=O)N2Cc2ccco2)cc1COc1ccc(F)cc1 (centres undefined) | -8.4% | . | i
CC(C)C(CC(=O)NCc1ccco1)c1ccco1 (centres undefined) | -4.7% | . | i
COc1ccccc1NC(=O)CSc1nnc(C2CCCCC2)o1 | -7.7% | 0.9 | i
CC(C)OC(=O)NCCOC(=O)Nc1cccc(Cl)c1 | -4.7% | -1.1 | i
Cc1cc2nc(NC3=NCN(Cc4ccc5c(c4)OCO5)CN3)nc(C)c2cc1C | -2.8% | 1.3 | i
O=C(O)CC1=C(O)C(=O)N(c2ccccc2)C1c1ccc(Br)cc1 (centres undefined) | 3.6% | . | i
O=C(NCC1CCCO1)c1sc(=S)n2c1[nH]c(=O)c1ccc(C(=O)N3CCCCC3)cc12 (centres undefined) | -4.9% | -1.2 | i
Cc1cc(=O)oc2cc(OCc3nnc(-c4ccccc4Br)o3)ccc12 | -2.5% | 1.8 | i
C=CCc1cccc2cc(C(=O)N3CCN(C(=O)OCC)CC3)c(=O)oc12 | 2.8% | 0.03 | i
c1ccc(CNC2=NCCCC2)cc1 | 2.6% | 0.89 | i
CCCCC1CC(C)(C(=O)CSc2nc3ccccc3s2)OC1=O (centres undefined) | -1.1% | . | i
CC1=C(C(=O)NCc2ccc3c(c2)OCO3)C2(CCC(C)CC2)OC1=O (centres undefined) | -0.8% | 0.12 | i
O=c1ccc2c(o1)/C(=C/C=C(Cl)Cl)CCC2 | -6.0% | -0.81 | i
COC1(c2cc(-c3ccccc3)nc(N)n2)CCCCC1 | -0.4% | -0.46 | i
CCCCC(CC)C(=O)Nc1ccccc1C(=O)NC(C)C (centres undefined) | 0.7% | -0.52 | i
COC(=O)c1c(NC(=O)c2cccs2)sc2c1CCCC2 | -2.2% | -0.92 | i
O=C(C1CCN(S(=O)(=O)c2cccs2)CC1)N1CCN(c2ccccc2)CC1 | -0.9% | . | i
CCCN(CCC)S(=O)(=O)c1ccc(NS(=O)(=O)c2ccc(F)cc2)cc1 | -3.7% | . | i
CC(C)(C)c1nc(NCC2CCCO2)c2nnn(Cc3ccccc3)c2n1 (centres undefined) | 0.2% | -0.88 | i
O=C(Nc1nncs1)c1c(F)c(F)c(F)c(F)c1F | 2.2% | -0.14 | i
O=C(C1=C(O)C(=O)N(CCN2CCOCC2)C1c1ccccn1)c1cccs1 (centres undefined) | -1.5% | 0.91 | i
COc1ccc(C(=O)N2CCCC(c3nc(-c4cccs4)no3)C2)cc1 (centres undefined) | -2.2% | -0.99 | i
COc1ccccc1NC=C1C(=O)OC(C)(C)OC1=O | -5.5% | 1.5 | i
Cc1ccc(-c2nn(C)c(=O)c3ccccc23)cc1CNS(C)(=O)=O | 1.3% | -0.26 | i
Cc1ccccc1P(=O)(CO)c1ccccc1C | 4.1% | -0.21 | i
CC(C)Oc1ccc(C(=O)CCN2CCCCC2)cc1 | 2.5% | 0.07 | i
Cc1ccc(N2CC(C(=O)Nc3ccncc3)CC2=O)cc1 (centres undefined) | 4.0% | -0.89 | i
CCN(CC)S(=O)(=O)c1cccc(-c2nnc(SCC(=O)c3cc(C)n(C4CC4)c3C)o2)c1 | -1.4% | 0.42 | i
O=C(NCCCO)c1ccc2[nH]c3c(c2c1)CCCC3 | -0.4% | . | i
CC(C)c1cc(NC(=O)CSc2nnc(-c3ccccc3F)n2C)on1 | -7.0% | 0.1 | i

Seven of these compounds, set out differently:
The line under a structure holds: Hsc70 ATP site | WNV NS2B-NS3 inh | MT1-MMP reporter
> O=C(NCC1CCCO1)c1sc(=S)n2c1[nH]c(=O)c1ccc(C(=O)N3CCCCC3)cc12 (centres undefined)
  -4.9% | -1.2 | i
> Cc1cc(=O)oc2cc(OCc3nnc(-c4ccccc4Br)o3)ccc12
  -2.5% | 1.8 | i
> C=CCc1cccc2cc(C(=O)N3CCN(C(=O)OCC)CC3)c(=O)oc12
  2.8% | 0.03 | i
> c1ccc(CNC2=NCCCC2)cc1
  2.6% | 0.89 | i
> CCCCC1CC(C)(C(=O)CSc2nc3ccccc3s2)OC1=O (centres undefined)
  -1.1% | . | i
> CC1=C(C(=O)NCc2ccc3c(c2)OCO3)C2(CCC(C)CC2)OC1=O (centres undefined)
  -0.8% | 0.12 | i
> O=c1ccc2c(o1)/C(=C/C=C(Cl)Cl)CCC2
  -6.0% | -0.81 | i

(next part)
SMILES | Hsc70 ATP site | WNV NS2B-NS3 inh | MT1-MMP reporter
Cc1nc2ccc(S(=O)(=O)NC(C(=O)NC3CCCC3)C(C)C)cc2s1 (centres undefined) | 1.0% | 0.13 | i
O=C(CCn1c(=O)sc2ccccc21)Nc1nccs1 | -0.9% | -0.07 | i
COC(=O)CSC1=C(C#N)C(c2ccccc2F)CC(=O)N1 (centres undefined) | 4.3% | -1.2 | i
COCCn1nnnc1C(CC(C)C)N1CCN(C(=O)c2ccco2)CC1 (centres undefined) | -4.3% | 1.7 | i
Cc1ccccc1C(=O)N1CCN(c2ncnc3c2cnn3-c2ccccc2)CC1 | -6.3% | . | i
CCOC(=O)c1cc(OC(=O)c2ccccc2)n(-c2ccccc2)n1 | -1.8% | . | i
O=C(Nc1ccc(N2CCN(C(=O)c3ccco3)CC2)cc1)c1ccc(F)cc1 | 0.5% | -1.4 | i
CCOC(=O)c1sc(N2C(=O)C(O)=C(C(=O)c3ccco3)C2c2ccccc2)nc1C (centres undefined) | 0.9% | 0.08 | i
O=c1[nH][nH]c(C(F)(F)F)c1C=NCc1cccc(Cl)c1 | 1.8% | . | i
FC(F)(F)c1cc(-c2ccccc2)nc(N2CCCCCC2)n1 | -0.3% | 0.11 | i
O=C(O)c1cccc(N2C(=O)C3CC=C(Cl)CC3C2=O)c1 (centres undefined) | 5.4% | -0.42 | i
C(=N/n1c2ccccc2c2ccccc21)/c1ccco1 | -7.1% | -1.1 | i
O=C1CCCc2nc(N3CCN(Cc4ccccc4)CC3)ncc21 | -0.3% | 0.33 | i
c1ccc(N2CCN(c3nnnn3-c3ccccc3)CC2)cc1 | -3.6% | -0.42 | i
CCOC(=O)N1CCC(NC(=O)C2CCC(Cn3c(=O)[nH]c4ccccc4c3=O)CC2)CC1 (centres undefined) | -6.0% | -0.63 | i
COc1ccc(-n2nnc3c(=O)n(CC(=O)N4CCC(C)CC4)cnc32)cc1 | 4.5% | -0.71 | i
CC(C)(C)c1cnnn1-c1ccc(C=O)cc1 | 4.0% | . | i
Cc1ccc(CCNC(=O)C2CCCN(S(=O)(=O)c3cnc[nH]3)C2)cc1 (centres undefined) | 2.6% | 0.09 | i
CN1CCN(C(=O)C2CCN(S(=O)(=O)c3cnc[nH]3)CC2)CC1 | -0.2% | -0.005 | i
CCCc1[nH]c(=O)c(C#N)c2c1CCCC2 | -2.1% | . | i
COc1ccc2c3c(c(=O)oc2c1OCC(=O)C(C)(C)C)CCCC3 | 5.1% | 2.1 | i
Cc1cccc2c1CC(C)(C)N=C2C1=C(O)CC(C)(C)CC1=O | -1.2% | . | i
O=C1c2ccccc2C(=O)N1c1n[nH]c(CCc2ccccc2)n1 | 0.6% | 1.6 | i
CC1(C)C=C(c2ccc(O)cc2)CC(C)(C)N1 | -3.2% | 0.98 | i
Cn1c(SCc2ccc3c(c2)OCO3)nnc1-c1ccccc1 | -3.9% | -0.11 | i
O=C(Nc1ccccc1)N1CCN(c2ccccn2)CC1 | -0.8% | . | i
C=C(C)COc1ccc(-c2nc(N)ncc2-c2ccc(OC)cc2)c(O)c1 | -0.6% | -1.1 | i
CCc1cc2c(N3CCN(c4nnc(CC)s4)CC3)ncnc2s1 | -10% | -1.3 | i
N#C/C(C(=O)c1ccccc1)=C1/SC=C(N)N1c1ccccc1 | -140% | 0.23 | i
CCC(Sc1nc(-c2ccccc2)cc(=O)[nH]1)C(=O)O (centres undefined) | 2.2% | 0.97 | i
CCOc1ncccc1C(=O)OCC(=O)N1CC(=O)Nc2ccccc21 | 0.9% | -0.25 | i
CC1(C)CC(=O)C(C=N)=C(O)C1 | 5.0% | 0.01 | i
COc1ccc(S(=O)(=O)Cc2ccc(C(=O)N3CCN(c4cc(Cl)ccc4C)CC3)o2)cc1 | 2.8% | -0.53 | i
CCOc1ccc(-n2cc(C(=O)N3CCC(C)CC3)c3cc(OC)c(OC)cc3c2=O)cc1 | -1.4% | -0.65 | i
CCCCn1c2nc3ccccc3nc2c2c(=O)n(CCC(C)C)cnc21 | -3.6% | -0.08 | i
O=C1N[C@@H](Cc2ccccc2)C(=O)N1CCN1CCOCC1 | 1.2% | . | i
Nc1nnc(CC2=CCCCC2)s1 | -5.0% | 0.18 | i
CC1(C)CC2CC(C)(CN2CC(=O)C(C#N)c2ccccc2)C1 (centres undefined) | 2.8% | 1.7 | i
c1ccc(CN2CCN(C3=Nc4cccc5cccc3c45)CC2)cc1 | -0.3% | . | i
COc1ccc(NC(=O)NC(C)(C(F)(F)F)C(F)(F)F)cc1 | 0.7% | . | i
Cc1ccc(Nc2nc(N)nc(CN3CCCCCC3)n2)c(C)c1 | -8.8% | -0.23 | i
CCOC(=O)c1ccc(-n2c(N)c(C(=O)NCc3ccco3)sc2=S)cc1 | -4.0% | -1 | i
Cc1cc(C)n(-c2nc3c(c(=O)[nH]c(=O)n3C)n2CC(C)C)n1 | -1.8% | 1.1 | i
CCCC1=C(C(=O)OCC)C(c2cc(Cl)cc(OC)c2OCC(=O)OCC)NC(=O)N1 (centres undefined) | -1.3% | -0.02 | i
CC1(C)CC(=O)c2cc(OCC(=O)NCCCN3CCN(c4ccc(F)cc4)CC3)ccc2O1 | -3.2% | -0.29 | i
O=C(NC1CCCC1)c1sc(=S)n2c1[nH]c(=O)c1ccccc12 | 0.7% | 0.33 | i
CCOC(=O)c1cnc2c(C(=O)OC)cccc2c1NCc1ccco1 | 4.0% | 0.62 | i
C=CCNc1sc(C(=O)C2CC2)c(N)c1C#N | -1.1% | -0.3 | i
CCN(CC)S(=O)(=O)c1cc([N+](=O)[O-])ccc1NNC(=O)Nc1ccccc1OC | -0.7% | . | i
Cc1cc(C)c(C2C(C#N)=C(N)Oc3n[nH]c(C)c32)cc1CN1CCOCC1 (centres undefined) | 3.3% | . | i

Additional results follow:
SMILES | Hsc70 ATP site | WNV NS2B-NS3 inh | MT1-MMP reporter
Cn1c2ccccc2c2cc(C(=O)OCC(=O)N3CC(=O)Nc4ccccc43)sc21 | -60% | 0.82 | i
CC(=O)[C@@]1(O)CC[C@H]2[C@@H]3C[C@H](C)C4=CC(=O)C=C[C@]4(C)[C@@]3(F)[C@@H](O)C[C@@]21C | -3.8% | -0.05 | i
CCCC(=O)Nc1ccccc1NC(C)=O | 0.4% | -0.12 | i
COc1ccc(-n2nc(C(=O)c3cccs3)cc(-c3nc4ccccc4[nH]3)c2=N)cc1 | 0.5% | . | i
COc1ccc(NC(=O)CSc2nnc(-c3cccs3)n2Cc2ccco2)cc1OC | -2.7% | -0.57 | i
COc1ccc(-n2c(C)nnc2SCC(=O)N2C(C)CCCC2C)cc1 (centres undefined) | 0.4% | 0.52 | i
O=C(CCC1CCCC1)c1c(O)c2ccccc2oc1=O | -2.3% | 0.6 | i
COc1ccc(CN2CCCCC2c2cccnc2)c(OC)c1C (centres undefined) | 8.5% | -0.53 | i
Cc1[nH]c(-c2ccco2)nc1C(=O)O | 4.5% | 1 | i
CCN(CC)CCCN1C(=O)C(=O)/C(=C(/O)c2ccccc2)C1c1ccccn1 (centres undefined) | 1.0% | 0.48 | i
COc1nccc(Nc2ccccc2)c1C#N | 6.3% | -0.19 | i
Cc1ccc(Nc2cc(C)nc3nc(C)nn23)c(C)c1 | 3.5% | -1.9 | i
CCOC(=O)N1CCN(C(=O)CCn2nc(-c3ccc(Cl)cc3)ccc2=O)CC1 | 4.3% | 0.66 | i
COc1ccccc1NC(=O)c1ccccc1-c1nc(-c2ccccc2OC)no1 | -5.8% | -2.4 | i
NCCCC(=O)N1c2ccccc2Sc2ccccc21 | 7.1% | -0.16 | i
CC1(C)CC(=O)C(CC(=O)NC(=O)NCc2ccccc2)=C(O)C1 | 6.4% | -0.4 | i
COc1ccc(N2CCN(C(=O)CSc3nnnn3-c3ccc4c(c3)OCCO4)CC2)cc1 | 4.1% | 0.28 | i
COc1ccc(Cl)cc1NC(=O)c1cccnc1 | 1.4% | -0.89 | i
Cc1cccc(-n2c(C)nc3c(cnn3-c3ccc(F)cc3)c2=O)c1 | -5.3% | 0.95 | i
Nc1nc(CSc2nnnn2-c2ccccc2)nc(N2CCCc3ccccc32)n1 | 4.8% | 0.06 | i
O=C(Nc1cc(Cl)c(O)c(Cl)c1)C1CCCO1 (centres undefined) | 0.0% | . | i
CC1CCN(C(=O)Cn2cc(C(=O)C3CC3)c3ccccc32)CC1 | 3.2% | . | i
CCS(=O)(=O)Nc1ccc(C(=O)CC2(O)C(=O)Nc3ccccc32)cc1 (centres undefined) | -2.8% | 0.33 | i
COc1ccc(CCNC(=O)C2CCN(C(=O)N(C)C)CC2)cc1OC | 0.1% | 0.69 | i
Cc1nnc2sc(-c3csc4c3CCCC4)nn12 | 0.4% | -0.74 | i
COc1cc2[nH]c(=O)n(CCCCCC(=O)NCCCN3CCOCC3)c(=O)c2cc1OC | -0.1% | 2.4 | i
Cc1cc(C)c(NC(=O)C(C)(C)C)c(Cl)c1 | 3.3% | 1.9 | i
O=C1CSC(=Nc2ccccc2Cl)N1 | 1.5% | 0.0053 | i
COc1ccccc1-c1nnc(SCc2nc3ccccc3[nH]2)n1C | -1.9% | 2 | i
